GLA inh pH 4.5 = alpha-galactosidase A (human) inhibition, pH 4.5. P06280. purified enzyme, 4-MU-alpha-Gal fluorescence, pH 4.5. activity change, negative = inhibition, % at 105 µM. 230,000 tested, under 10 active. AID 1467; inconclusive = small, poorly fitted or top-dose-only inhibition, or a rising curve; inactive = flat fitted curve, though single readings scatter; no compound was filed as active;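 note: 0% = full activity with enzyme and -100% = basal without enzyme; dose as in the result columns while the protocol names 77 µM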
Rango complex inh = Rango-importin beta binding inhibition. Rango CFP/YFP FRET sensor + importin beta, 45 min. Potency, µM (highest dose often 92.2 µM), for the others: top-dose inhibition of complex formation. hit rate 0.031% among 340,000. AID 540263; active = rising FRET ratio curve, often small or poorly fitted; inconclusive = mostly compound fluorescence or quenching in the first reads; inactive = flat curves in all reads;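 note: potency is the fitted concentration of half-maximal effect; 0% = DMSO wells and 100% = buffer wells lacking importin beta; nearly all actives have a fitted effect of over 15% in size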
Target sequence (Q14974 whole entry, looked up): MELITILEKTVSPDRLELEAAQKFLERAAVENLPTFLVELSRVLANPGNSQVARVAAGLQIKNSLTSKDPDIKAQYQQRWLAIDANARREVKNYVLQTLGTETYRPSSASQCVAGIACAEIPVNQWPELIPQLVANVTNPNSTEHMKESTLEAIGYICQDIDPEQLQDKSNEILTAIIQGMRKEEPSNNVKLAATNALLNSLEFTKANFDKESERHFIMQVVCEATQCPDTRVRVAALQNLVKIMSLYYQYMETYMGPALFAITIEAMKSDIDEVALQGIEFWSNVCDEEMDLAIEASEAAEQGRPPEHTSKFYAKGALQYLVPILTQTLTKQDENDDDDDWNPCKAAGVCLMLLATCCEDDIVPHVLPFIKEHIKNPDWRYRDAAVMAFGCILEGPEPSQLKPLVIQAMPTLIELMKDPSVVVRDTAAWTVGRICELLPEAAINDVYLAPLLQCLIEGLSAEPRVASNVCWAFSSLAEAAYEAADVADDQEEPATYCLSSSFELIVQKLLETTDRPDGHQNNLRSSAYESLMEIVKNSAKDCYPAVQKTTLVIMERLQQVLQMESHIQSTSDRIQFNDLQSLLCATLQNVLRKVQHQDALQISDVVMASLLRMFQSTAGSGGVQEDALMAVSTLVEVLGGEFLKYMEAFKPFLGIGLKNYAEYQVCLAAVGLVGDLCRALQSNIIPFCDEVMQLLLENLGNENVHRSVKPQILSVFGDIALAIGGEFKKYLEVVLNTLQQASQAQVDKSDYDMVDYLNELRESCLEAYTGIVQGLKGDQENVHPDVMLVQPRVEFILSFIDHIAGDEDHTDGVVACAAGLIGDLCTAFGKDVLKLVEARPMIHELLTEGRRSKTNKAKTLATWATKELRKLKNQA
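Inhibition scored from the CFP 486 nm/YFP 530 nm FRET ratio 45 min after adding 0.125 microM importin beta to 50 nM Rango biosensor preincubated 5 min with compound (room temperature, PBS with DTT, Tween-20, BSA). No-importin wells as positive control.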
miR-21 reporter = miR-21 reporter, rising signal | HeLa miR-21 FLuc reporter, luciferase, 48 h | Potency, µM (titrated, usually from 38.3 µM), for inactives: top-dose reporter change, positive = more light | 340,000 tested, under 10 active | AID 2288; active = well fitted rising curve with a large enough effect; inconclusive = small, poorly fitted or top-dose-only effect; inactive = no such curve, though single readings can be large or run the other way;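 note: % of control where 0% means no effect; miR-21 action dims this reporter so a rising signal means less miR-21 action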
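Using DMEM plus 10% FBS, HeLa miR-21-FLuc cells are incubated with test compounds (final up to about 40uM) for 48 hours; firefly luciferase signal is then imaged following reagent-mediated lysis.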
Rango release inh = inhibition of RanGTP-driven Rango-importin beta dissociation; hit rate 0.071% among 340,000; AID 540253; Potency, µM (titrated, usually from 46.1 µM), inactives show top-dose activity change, negative = inhibition; Biochemical FRET Rango-importin beta, RanGTP-induced dissociation; active means falling FRET ratio curve, often poorly fitted, with flat reads before Ran was added; inconclusive means other falling curves, or compound fluorescence or quenching; inactive means flat or rising ratio curve;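 note: potency is the fitted concentration of half-maximal effect; % of control where 0% means no effect; nearly all actives have a fitted effect of over 45% in size; -100% = wells without RanGTP and RCC1; the record marks most hits as doubtful in a second field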
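Quantitative HTS using a FRET biosensor: 0.1 uM Rango, 0.25 uM importin beta, 0.6 uM Ran, 2 mM GTP, 0.2 uM RCC1 final, PBS with DTT, Tween-20 and BSA. Post-read taken 45 min after Ran addition.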
Numbers without * were called inactive; ? = inconclusive; · = not tested or not shown; & = joins results of further samples. These rows are one share of the data; rates above refer to the full screens.

SMILES	GLA inh pH 4.5	Rango complex inh	miR-21 reporter	Rango release inh
COCCn1nnnc1C(c1ccc(Cl)cc1)N1CCSCC1 (stereo not given)	2	-1.8%	-2%	1%
CCOC(=O)c1ccccc1NC(=O)CSc1ncc(C(=O)OCC)c(N)n1	-8	-2.3%	-13%	2%
O=C(NCc1cccs1)c1csc2ccccc12	-15	0.1%	-47%	-6%
COCCN(C(=O)CCC(=O)Nc1ccccn1)C(C(=O)NC(C)(C)C)c1ccc(OC)cc1 (stereo not given)	·	-2.2%	-1%	4%
O=C(Nc1ncccn1)C12CC3CC(CC(C3)C1)C2	1	-1.3%	-2%	4%
COc1ccccc1-c1nc(SCC(=O)Nc2cc(C)on2)c2c(=O)n(C)c(=O)n(C)c2n1	·	-0.7%	0%	-3%
O=C(CN1C(=O)COc2ccc(Cl)cc21)NCC1CCCO1 (stereo not given)	·	-3.0%	-5%	10%
O=c1cc(-c2ccc(Cl)cc2)[nH][nH]1	4	6.2%	-1%	6%
COc1ccc(OC)c(NC(=O)c2ccccc2N(C)S(=O)(=O)c2ccc(C)cc2)c1	·	-1.2%	3%	1%
CCCC(C(=O)N(C)CC(=O)Nc1ccc(N2CCOCC2)cc1)c1ccccc1 (stereo not given)	·	-1.0%	·	16%
COc1ccccc1S(=O)(=O)NCc1ccc(C(=O)NC2CCC(O)CC2)cc1 (stereo not given)	·	0.3%	·	12%
Cc1ccc(S(=O)(=O)NCC(=O)N2CCN(c3ccc(F)cc3)CC2)cc1	·	1.7%	-4%	?
CCOc1ccc(NC(=O)c2ccccc2OCC(=O)c2ccc(C)cc2)cc1	2	?	0%	-7%
COc1ccc(C)cc1NC(=O)C1COc2ccccc2O1 (stereo not given)	13	0.2%	-36%	-14%
NC(=O)COc1ccccc1C1=NO[C@@](CC(=O)O)(C(=O)Nc2ccc3c(c2)OCCO3)C1	·	-3.1%	-6%	-3%
O=C(NC1CCCCC1)c1ccc(Cl)c(NC(=O)c2ccccc2F)c1	2	·	-5%	·
O=C(O)CCC(=O)OCC1CCCCC1	4	3.2%	0%	-4%
CCc1noc(C)c1C(=O)Nc1nc(-c2ccc(OC)cc2OC)cs1	·	-0.7%	·	17%
CC(=O)Nc1cccc(/C(C)=N/NC(=S)NC(C)C)c1	6	2.6%	-20%	2%
Cc1nc2sc(C(c3ccccc3)N3CCC(O)CC3)c(O)n2n1 (stereo not given)	-3	-0.1%	-2%	3%

Shown as labelled records: part of the list above
CCCC(C(=O)N(C)CC(=O)Nc1ccc(N2CCOCC2)cc1)c1ccccc1 (stereo not given)
  GLA inh pH 4.5: ·	Rango complex inh: -1.0%	miR-21 reporter: ·	Rango release inh: 16%
Cc1nc2sc(C(c3ccccc3)N3CCC(O)CC3)c(O)n2n1 (stereo not given)
  GLA inh pH 4.5: -3	Rango complex inh: -0.1%	miR-21 reporter: -2%	Rango release inh: 3%

(further entries)
SMILES	GLA inh pH 4.5	Rango complex inh	miR-21 reporter	Rango release inh
NC(=O)CCn1c(=O)oc2ccccc21	0	-1.3%	2%	2%
CCn1cnc2cc(NCc3ccncc3)ccc21	2	-4.6%	-8%	11%
NC(=O)CSc1nnc(Cn2c(=O)sc3ccccc32)n1CCc1ccccc1	3	4.0%	-6%	10%
O=C(C(=O)c1ccc(O)cc1)c1ccccc1	·	-1.2%	1%	13%
O=C(CC1N=C2c3ccccc3N=C(SCc3ccccc3Cl)N2C1=O)NCc1ccco1 (stereo not given)	-6	-0.4%	-14%	-2%
NC(=O)C1CCN(c2nc(C3CC3)nc3c2nnn3Cc2ccccc2)CC1	-2	0.9%	-4%	0%
CC(C)CN(C(=O)COC(=O)Cc1cccc2ccccc12)c1c(N)n(Cc2ccccc2)c(=O)[nH]c1=O	·	3.9%	·	-3%
CC1CCCN(S(=O)(=O)c2cccc3nonc23)C1 (stereo not given)	·	-2.5%	-7%	-7%
CN(CC(=O)Nc1ccc(Cl)cc1)C(=O)c1sccc1-c1ccccc1	·	0.8%	·	-1%
Cc1ccc(C(=O)CSc2nnc3n2CCCCC3)s1	·	-0.6%	·	-4%
O=C(NNC(=O)c1ccc(NC(=O)C2CC2)cc1)c1ccc(F)cc1	·	-2.1%	-9%	7%
Fc1ccc2c(c1)C(c1ccncc1)=NNC(c1ccccc1)=N2	-3	-0.6%	-35%	6%
CCCSc1ccc(-c2nn(-c3ccccc3)cc2/C=C(/C#N)C(=O)N2CCOCC2)cc1	-12	?	-17%	2%
Cc1ccc(C)c(NCC(=O)NNC(=S)Nc2ccccc2)c1	8	-2.3%	-7%	-2%
CC(=O)Nc1ncc2c(n1)CC(c1ccco1)CC2=O (stereo not given)	-3	-2.2%	-7%	10%
Nc1c(C(=O)Nc2ccc(F)cc2)nnn1-c1cccc(C(F)(F)F)c1	9	2.8%	-14%	14%
CC(C)(CNC(=O)c1ccc(S(=O)(=O)Nc2cccc(C(F)(F)F)c2)cc1)N1CCOCC1	·	-3.5%	·	0%
COc1cc(C(=O)NCc2nnc(SCC(=O)Nc3cc(C)on3)o2)cc(OC)c1OC	-2	2.6%	3%	0%
Cc1cc(Cl)ccc1OCC(=O)NCCOc1nc(N2CCCCC2)nc(N2CCOCC2)n1	3	-3.0%	-7%	-4%
COc1ccc(NS(=O)(=O)c2ccc(N3CCCCC3)c(N)c2)cc1	·	-1.5%	·	-13%
O=C(NCC1CCCO1)c1ccc(NC(=O)C2CC=CCC2C(=O)O)cc1 (stereo not given)	4	-1.1%	-3%	-10%
O=C(O)CCCC(=O)Nc1ccccc1SCCS(=O)(=O)c1ccc(Cl)cc1	·	-3.6%	-23%	11%
CCc1noc(C)c1C(=O)N(CC(C)C)c1c(N)n(Cc2ccccc2)c(=O)[nH]c1=O	·	-1.4%	·	-3%
Cc1cnc(C(=O)Nc2ccccc2C(=O)N2CCOCC2)cn1	2	0.3%	-2%	-2%
O=C(CSc1ncn[nH]1)CSc1ncn[nH]1	1	-4.7%	-1%	12%
COc1ccc(-c2cc(-c3nnc(COC(=O)c4ccc(O)cc4)o3)c3ccccc3n2)cc1OC	?	?	1%	?
Cc1cc(-c2onc(C)c2C(=O)Nc2ccc(C(F)(F)F)cc2)no1	0	0.9%	-1%	23%
O=S(=O)(c1ccc(N2CCOCC2)nc1)N(Cc1ccccn1)Cc1ccccn1	-7	0.8%	0%	20%
O=c1[nH]c(C2CCCN(S(=O)(=O)c3ccccc3)C2)nc2c1nnn2Cc1ccc(OC(F)(F)F)cc1 (stereo not given)	·	-2.4%	-2%&-1%	-1%
O=C(Cc1ccc(Br)cc1)NC1CCSC1=O (stereo not given)	-7	1.1%	12%	1%
Cc1ccc(NS(=O)(=O)c2ccc(C(=O)NCC(c3ccco3)N(C)C)cc2)cc1 (stereo not given)	·	-0.7%	3%	-2%
NC(=O)c1ccc(-c2ncc(-c3ccccc3)o2)cc1	13	2.5%	-56%	10%
CN(CCO)c1nc(N)c2c(N)nc3c(c2c1C#N)CC(=O)N3C1CCCC1	-3	·	3%	·
CCN/C=C(\C#N)S(=O)(=O)c1ccc(Br)cc1	-2	6.2%	-8%	-9%
COC(=O)C1=C(CSc2nc3ccccc3s2)NC(=O)NC1c1ccc(F)cc1 (stereo not given)	-6	1.4%	1%	-10%
CCN(CC)C(=O)C(=O)Nc1ccc(F)c(Cl)c1	-21	?	-50%	5%
CC(Oc1ccccc1F)C(=O)NNC(=O)c1cc2ccccc2o1 (stereo not given)	3	-1.2%	-5%	0%
COc1cc2c(cc1OC)C(c1cc(Br)ccc1F)N(C(=O)CCl)CC2 (stereo not given)	·	3.9%	?	-20%
Cc1nnc(SCC(=O)NCc2ccc(F)cc2)[nH]c1=O	-5	-1.4%	-1%	15%
Cc1ccc(C(=O)N[C@H](C(=O)OCC(=O)Nc2cccc(S(N)(=O)=O)c2)C(C)C)cc1	-1	-0.2%	1%	-5%

Record cards, from the list above. Values in the order: GLA inh pH 4.5, Rango complex inh, miR-21 reporter, Rango release inh
`Cc1ccc(C(=O)N[C@H](C(=O)OCC(=O)Nc2cccc(S(N)(=O)=O)c2)C(C)C)cc1` is listed with -1, -0.2%, 1%, -5%
`Cc1ccc(NS(=O)(=O)c2ccc(C(=O)NCC(c3ccco3)N(C)C)cc2)cc1` (stereo not given) is listed with ·, -0.7%, 3%, -2%
`O=C(NCC1CCCO1)c1ccc(NC(=O)C2CC=CCC2C(=O)O)cc1` (stereo not given) is listed with 4, -1.1%, -3%, -10%
`CC(Oc1ccccc1F)C(=O)NNC(=O)c1cc2ccccc2o1` (stereo not given) is listed with 3, -1.2%, -5%, 0%
`CN(CCO)c1nc(N)c2c(N)nc3c(c2c1C#N)CC(=O)N3C1CCCC1` is listed with -3, ·, 3%, ·

Next part.
SMILES	GLA inh pH 4.5	Rango complex inh	miR-21 reporter	Rango release inh
Cc1ccc(SCc2cn3c(C)csc3n2)cc1	-5	-1.5%	-31%	-1%
CCn1c(SC(C)C(=O)NC2CCCC2)nc2cc(S(N)(=O)=O)ccc21 (stereo not given)	·	0.5%	·	-7%
COc1ccc(CN2CC[C@H]3C=CC[C@@H](C(=O)Nc4ccc(Cl)c(C(F)(F)F)c4)[C@H]3C2=O)cc1OC	·	-2.1%	·	11%
O=C(N[C@H]1CCC(=O)N([C@H](CSc2ccccc2)Cc2ccccc2)CC1)OCc1ccccc1	·	2.0%	14%	4%
CC(=O)Nc1ccccc1NS(=O)(=O)c1cccc([N+](=O)[O-])c1	-4	2.8%	4%	0%
CCOC(=O)CN1C(=O)C2(OCCCO2)c2cc(Br)ccc21	·	-1.6%	-4%	-3%
COc1ccc(OC)c(N2Cc3cc(C)c(C)cc3C2)c1	1	-0.2%	-22%	-4%
Cc1c(C(=O)N2CCN(c3ccc(C(F)(F)F)cn3)CC2)oc2ccccc12	2	2.9%	-7%	24%
c1ccc(N2CC3CCc4ccccc4C3=N2)cc1 (stereo not given)	23	?	-53%	?
COc1ccc(Cn2c(-c3ccccc3C)nc3c(c(=O)c4ccccc4n3C)c2=O)cc1	·	3.4%	·	4%
O=c1cc(-c2ccccc2)c2cc3c(cc2[nH]1)OCCO3	-2	1.2%	-4%	-8%
Cc1occc1C(=O)N1CCN(C(c2ccccc2)c2ccccc2)CC1	?	-1.7%	24%	0%
CC(NC(=O)C(=O)N/N=C/c1ccccc1)c1ccccc1 (stereo not given)	5	4.5%	0%	?
O=C(NCCCN1CCOCC1)c1cn(-c2ccccc2)nc1-c1cccs1	-1	6.5%	0%	-1%
CCC(C)NC(=O)C1(N2C(=O)c3ccccc3C2=O)CCCC1 (stereo not given)	·	-0.8%	·	0%
CC(C)[C@H](NC(=O)c1ccc(Cl)c([N+](=O)[O-])c1)C(=O)O	-1	1.0%	3%	-3%
COc1ccc(Cl)cc1NC(=O)C(C)N1CCN(c2ccccn2)CC1 (stereo not given)	·	1.3%	0%	12%
Cc1ccc2nc3c(c(C(=O)OCC(=O)NC4CCS(=O)(=O)C4)c2c1)CCCC3 (stereo not given)	9	1.3%	4%	-14%
COc1ccc(-c2c(-c3cc(OC)cc(OC)c3)n(C)c3ccc(-c4ccc(S(N)(=O)=O)cc4)cc23)cc1	·	0.8%	·	-6%
O=C(Nc1ccccc1C(=O)NC(Cc1ccccc1)C(=O)NC1CCCCCC1)c1ccccc1 (stereo not given)	3	2.5%	-3%	4%
Cc1ccc(S(=O)(=O)NC2=C(N3CCN(c4ccccc4F)CC3)C(=O)c3ccccc3C2=O)cc1	-1	-2.3%&2.6%	-39%	6%&19%
COc1cc2c(cc1OC)CN(C(=O)Cc1c(F)cccc1Cl)CC2	·	-4.0%	3%	-5%
Cc1ccc(NC(=O)c2cncc(Br)c2)c([N+](=O)[O-])c1	13	-2.2%	-27%	0%
CCOC(=O)N1CCN(C(=O)c2ccc(S(=O)(=O)NCc3ccco3)cc2)CC1	-2	-0.8%	2%	-14%
COc1cc(NS(=O)(=O)c2ccc(NC(=S)NC(C)=O)cc2)nc(OC)n1	·	-4.6%	·	-4%
Cc1oc2ccc(O)c(CN3CCOCC3)c2c1C(C)O (stereo not given)	-10	-0.3%	-5%	0%
COCCCNC(=O)c1ccc(NS(C)(=O)=O)cc1	7	0.0%	-4%	-3%
COc1ccc(OC)c(NC(=O)Cn2nc(C)c3ccccc3c2=O)c1	·	-0.3%	-1%	-6%
CCC1(c2ccccc2)NC(=S)N(c2cccc(C)c2C)N1 (stereo not given)	9	0.0%	-9%	-7%
